Screens as filed in PubChem BioAssay.
KCNQ2 pot: potentiators of rat KCNQ2 potassium channel. O88943. CHO-K1 KCNQ2, FluxOR thallium flux fluorescence; stronger effect = higher value. B-score at 10 µM. 310,000 tested, 0.54% active. AID 2239;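 active means fluorescence ratio B-score at least 3 SD of library B-scores, with initial fluorescence B-score within 3 SD, cut at about 5.3 in these data; same plate scores as AID 2156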;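 further: B-score of peak minus minimum over baseline fluorescence ratio after K+ and Tl+ stimulus; positive B-score means potentiation of KCNQ2 with more thallium influx and brighter signal; only the inactives scoring about 0 or higher are listed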
KCNQ2 pot baseline: further read-out of KCNQ2 pot, marked with its call; B-score; compound at 10 µM; measured here: initial fluorescence intensity artifact check;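 brightness before thallium and not channel activity; 0 = typical well and far values either way flag optical interference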
* hit, by the source's call; nt = no result given. Some of the compounds tested, so the mix of outcomes need not match the whole.

SMILES | KCNQ2 pot | KCNQ2 pot baseline
CC12CC3CC(C)(C1)CC(N)(C3)C2 | 1.9 | 0.01
CC[C@@H]1C(=O)OC[C@@H]1Cc1cncn1C | 0.15 | nt
